HCMV NEC inh: cytomegalovirus nuclear egress complex inhibition; HTRF UL50-UL53 interaction, normalized percent inhibition; inhibition, % (concentration not given with the values); 0.15% of 190,000 active;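 active means both replicates at 50% or more, plus weaker picks with an unusually low signal ratio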;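 further: stock transfer was 100 nL into about 20 µL; 0% = negative control wells and 100% = wells with untagged competitor protein; inactives centre near -12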
GIV-Gai inh: blocks GIV peptide binding to rat Galpha-i3. Galpha-i3/FITC-GIV peptide fluorescence polarization, 90 min; hits give low values; scaled: aluminum fluoride 0%, vehicle 100%. 0.42% of 210,000 active. P08753. percent of control (FP), % (no concentration beside the values);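 active means replicate mean at 85% of control or lower, very high polarization wells dropped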;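 further: wells of about 15 µL received 100 nL stock; the first replicate is given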
Target sequence (P08753 whole entry, looked up): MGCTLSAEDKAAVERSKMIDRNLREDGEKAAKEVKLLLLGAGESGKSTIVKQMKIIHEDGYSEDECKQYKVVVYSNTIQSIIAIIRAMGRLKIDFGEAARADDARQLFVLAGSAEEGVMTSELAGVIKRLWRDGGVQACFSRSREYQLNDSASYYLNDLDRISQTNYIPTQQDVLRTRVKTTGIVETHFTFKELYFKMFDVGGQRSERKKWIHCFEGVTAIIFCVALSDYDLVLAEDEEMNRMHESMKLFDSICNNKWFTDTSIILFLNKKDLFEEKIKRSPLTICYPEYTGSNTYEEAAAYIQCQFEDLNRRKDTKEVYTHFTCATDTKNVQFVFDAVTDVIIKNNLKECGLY
Sa growth 42C: blocks Staphylococcus aureus growth; S. aureus RN4220 growth, OD600, 20 h, 42 °C; hits give low values; relative growth, % (test concentration not listed); 0.53% of 170,000 active; AID 720641;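 active means growth at 42 °C up to 50% and 20 or more points under that at 30 °C, or under 10% at both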;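 further: 300 nL library stock went into each well; scaled to the means of positive and negative controls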
Sa growth 42C second temp: second read-out of Sa growth 42C, no call of its own (marks repeat the call); relative growth, %; measured here: growth at 30 °C;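 optical density after 20 h as mean of two plates; 100% = untreated growth and lower means inhibition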
The depositor's hits bear a star; / = not tested or not shown; & = joins results of further samples.

1. Cc1cc(C(=O)CSc2nc(=O)n(C3CCS(=O)(=O)C3)c3c2CCC3)ccc1F (stereo unspecified)
2. Cc1ccc2c(c1)c1c3n2CCN(CC#N)C3CCC1 (stereo unspecified)
3. COc1ccccc1C1C(C(=O)N2CCCCC2)=C(C)Nc2nc3ccccc3n21 (stereo unspecified)
4. CCCCn1nnnc1SCC(=O)c1cc(OC)ccc1OC
5. Cc1cc(Br)ccc1NC(=O)c1coc(=O)c2ccccc12
6. Nc1nnc(SCCCc2ccccc2)s1
Compound,1,2,3,4,5,6
HCMV NEC inh,-27,1,-6,-21,7,-16
Sa growth 42C second temp,/,109,87,74,95,83
GIV-Gai inh,106,106,98,104,97,100
Sa growth 42C,/,106,89,125,102,94

7. Cc1ccc2[nH]cc(CCNC(=O)CSCc3nnc(C(=O)Nc4ccccc4C)s3)c2c1
8. CCCN(CCC)C(=O)CCc1ccccc1
9. COc1cccc(C(=O)N2CCC(N3CCN(Cc4ccccc4)C(=O)C3=O)CC2)c1
10. Cc1oc2c(cc(NS(=O)(=O)c3ccc(F)cc3)c3ccccc32)c1C(=O)OC(C)C
11. CC1CN/C(=C/C(=O)c2ccccc2)C(=O)N1 (stereo unspecified)
12. COc1cccc(-n2ccnc2SCC(=O)Nc2c(C)cc(C)cc2C)c1
Compound,7,8,9,10,11,12
HCMV NEC inh,-23,-10,-22,-1,/,/
Sa growth 42C second temp,/,88,/,/,87,97
GIV-Gai inh,106,99,96,113,105,100
Sa growth 42C,/,109,/,/,115,111

13. COc1cccc(NC(=O)CN(C)CC(=O)Nc2ccc3c(c2)CCC3)c1
14. CN(Cc1ccccc1)C(=O)c1cccc(N2C(=O)C3C4C=CC(C4)C3C2=O)c1 (stereo unspecified)
15. Cc1cccc(C2=Nc3ccccc3N=C(c3cc(Cl)ccc3O)C2)c1
16. CC(C)(C)OC(=O)N1CCC(c2cc(=O)n3[nH]cc(C(=O)Nc4ccc(F)c(Cl)c4)c3n2)CC1
17. Cc1cc(Nc2ccc(Br)c(C)c2)n2nc(-c3ccco3)nc2n1
18. Cc1cc(C)cc(C(=O)Nc2ccc(-c3ccc(N4CCOCC4)nn3)cc2)c1
Compound,13,14,15,16,17,18
HCMV NEC inh,-9,-31,16,/,/,-20
Sa growth 42C second temp,81,73,101,86,70,90
GIV-Gai inh,/,105,105,103,103,107
Sa growth 42C,118,100,101,116,75,94

19. CCc1ccc(NC(=O)Cn2cnc3sc(C)c(S(=O)(=O)N4CCC(C)CC4)c3c2=O)cc1
20. CC(C)c1ccc(S(=O)(=O)Nc2cc3c(cc2NCc2ccccc2)n(C)c(=O)n3C)cc1
21. O=C(OCC(=O)N1N=C2/C(=C/c3ccco3)CCCC2C1c1ccco1)c1cccc(S(=O)(=O)N2CCOCC2)c1 (stereo unspecified)
22. Cc1ccc(N=Cc2cn(-c3ccccc3)nc2-c2ccccc2)cc1
23. CC1CCN(S(=O)(=O)c2cc(C(=O)N3CCN(c4ccc(Cl)cc4)CC3)n(C)c2)CC1
24. CCc1cc2c(cc(C(=O)NCc3ccccc3)n2C)s1
Compound,19,20,21,22,23,24
HCMV NEC inh,5,-7,-30,/,-25,/
Sa growth 42C second temp,98,79,90,93,/,90
GIV-Gai inh,102,104,/,103,107,103
Sa growth 42C,80,108,100,108,/,96

25. O=C(O)CC1C(=O)NCCN1Cc1cccnc1 (stereo unspecified)
26. Cc1cc(COc2ccccc2OCCN2CCN(C)CC2)no1
27. O=C(Nc1cccc(C(F)(F)F)c1)/C(=C\c1cccs1)c1ccsc1
28. COCC(=O)N(Cc1ccccc1)c1ccccn1
29. COC(=O)CC1SC(=O)NC1=S (stereo unspecified)
30. CC(C)(C)OC(=O)N1CCC(c2c(C(=O)NCCN3CCc4ccccc4C3)cnn2-c2ccc(F)cc2F)CC1
Compound,25,26,27,28,29,30
HCMV NEC inh,14,/,-55,-2,-72,/
Sa growth 42C second temp,/,95,89,95,18,84
GIV-Gai inh,99,96,104,105,-68*,108
Sa growth 42C,/,93,101,100,49,110

31. Cc1ccc(CNC(=O)Cn2ccn(-c3cc(C)cc(C)c3)c(=O)c2=O)cc1
32. COc1ccc(N2C(=O)c3cc4occc4n3CC2(C)C(=O)NC2CCCCC2)cc1Cl (stereo unspecified)
33. NNC(=O)CSc1nnc2c(n1)[nH]c1ccccc12
34. Cc1ccc(NCc2cc(=O)n3[nH]c(-c4ccc(C(C)(C)C)cc4)nc3n2)cc1C
35. Cc1cccc(NC(=O)CSc2nc3ccc(NC(=O)COc4ccc(Cl)cc4)cc3s2)c1
36. CC(C)c1nc2ccccc2n1CCc1ccccc1
Compound,31,32,33,34,35,36
HCMV NEC inh,-21,-15,-56,-17,-12,9
Sa growth 42C second temp,86,/,87,/,83,94
GIV-Gai inh,100,106,/,112,99,/
Sa growth 42C,104,/,78,/,106,93

37. O=C(c1noc2c1COc1ccccc1-2)N1CCC(Cc2ccccc2)CC1
38. CNc1ccccc1C(C)(C)c1cc(-c2ccccc2C)no1
39. O=C(/C=C/c1ccco1)Nc1ccccc1C(=O)OCC(=O)c1cccs1
40. Cc1cc(NC(C)C)n2nc(-c3ccc(C(C)(C)C)cc3)nc2n1
41. COC(=O)C1=NNC(C(=O)OC)=NN1
42. CCOC(=O)c1cc(-c2ccc(F)cc2)n(CC(=O)N2CCn3c2nc2ccccc23)c1C
Compound,37,38,39,40,41,42
HCMV NEC inh,6,14,-17,-2,-38,-14
Sa growth 42C second temp,/,76,63,/,86,87
GIV-Gai inh,106,/,/,105,108,107
Sa growth 42C,/,91,92,/,94,102

43. COc1cccc(CNC(=O)c2ccc(NC(=O)N3CCCCc4ccccc43)cc2)c1OC
44. CCc1nn2c(=O)c(S(=O)(=O)N3CCN(c4ccccn4)CC3)c(C)nc2s1
45. CCCCCNC(=O)CCc1nnc2c3cc(-c4ccc(C)c(C)c4)nn3ccn12
46. CCNc1nc(NC(C)C)nc(OCCOC(=O)c2ccccc2)n1
47. O=C1/C(=C\c2cccs2)N=C(c2ccccc2)N1Cc1ccc(Cl)cc1
48. Cc1ccc2oc(-c3cccc(NC(=O)c4sc5c([N+](=O)[O-])cccc5c4Cl)c3)nc2c1
Compound,43,44,45,46,47,48
HCMV NEC inh,/,-34,-22,10,-12,0
Sa growth 42C second temp,89,/,/,/,87,90
GIV-Gai inh,99,98,107,102,111,108
Sa growth 42C,113,/,/,/,100,108

49. O=C(c1cnn(-c2ccc(F)cc2)c1-n1cccc1)N1CCN(c2ccccc2)CC1
50. Nc1c(C(=O)Nc2ccc(Cl)cc2F)sc2nc(-c3cccs3)ccc12
51. COc1ccc(-c2nn(-c3ccccc3)cc2/C=C\C(=O)N2CCCCC2)cc1
52. O=C1c2ccccc2C(=O)c2c(NC(=O)c3cccc4c3C(=O)c3ccccc3-4)cccc21
53. Cc1ccc(-c2nnc(Nc3ccccc3)c3ccccc23)cc1S(=O)(=O)NCc1nc2ccccc2[nH]1
54. CCOC(=O)c1c(NC(=O)c2cnccn2)sc(C(N)=O)c1C
Compound,49,50,51,52,53,54
HCMV NEC inh,/,-34,-58,-12,-41,-55
Sa growth 42C second temp,90,70,73,/,87,/
GIV-Gai inh,97,107,/,98,110,98
Sa growth 42C,115,92,89,/,111,/

55. O=C(Cn1c(=O)n(-c2cccc(Cl)c2)c(=O)c2sc3ccccc3c21)NC1CCCCC1
56. Cc1no[n+]([O-])c1COc1cccc(/C=C2\SC(=S)NC2=O)c1
57. CN(Cc1nc(-c2ccccc2)no1)C(=O)CC1CCCCC1
58. CCOC(=O)c1c(C)n(-c2ccc(N(CC)CC)cc2)c2c1cc(O)c1ccccc12
59. CCc1cccc(C)c1NC(=O)CCCn1c(C)c2cnn(-c3ccccc3)c(=O)c2c1C
60. O=C(Nc1cccc(F)c1)c1nnc(C2CCCN2C(=O)C2CC2)s1 (stereo unspecified)
Compound,55,56,57,58,59,60
HCMV NEC inh,0,-53,-28,-8,2,-10
Sa growth 42C second temp,87,-0.7*,101,/,75,/
GIV-Gai inh,109,/,103,103,104,104
Sa growth 42C,97,-0.8*,93,/,107,/

61. CC(Nc1nc(N2CCN(S(C)(=O)=O)CC2)nc2ccccc12)c1ccccc1 (stereo unspecified)
62. Cc1ccc(NC(=O)c2sc3ccccc3c2Cl)cc1
63. COc1ccc2c(c1)NC1(CCN(C(=O)CCC3CCCC3)CC1)c1cccn1-2
64. O=C1CC(c2ccsc2)c2c(-c3ccccc3)nn(-c3ccccc3)c2N1 (stereo unspecified)
65. CCOC(=O)/C(C)=N/Nc1ccc(OC(F)(F)F)cc1
66. CCCn1c(C)ccc(-c2noc(CCCC(=O)Nc3ccc(C)cc3C)n2)c1=O
Compound,61,62,63,64,65,66
HCMV NEC inh,-7,-16,-41,-25&-14,8,-10
Sa growth 42C second temp,66,91,/,90,99,/
GIV-Gai inh,107,110,102,107&102,112,109
Sa growth 42C,88,94,/,103,100,/

67. O=C(CC1CCCC1)N1CC(OCc2ccc(F)cc2)C1
68. CCc1cc2c(NCC3CCCO3)ncnc2s1 (stereo unspecified)
69. C/C(=N\NC(=O)C1CC1)c1ccc(Cl)s1
70. CC(C)(C)C1CCc2c(sc3nc(CCC(=O)N4CCN(C5CCCCC5)CC4)[nH]c(=O)c23)C1 (stereo unspecified)
71. Cn1cccc1-c1cc2n(n1)CCC(=O)N2CCCC(=O)NCc1cccc(Cl)c1
72. S=C(NC1CC1)N(Cc1ccco1)Cc1cccs1
Compound,67,68,69,70,71,72
HCMV NEC inh,5,-4,-30,5,/,-20
Sa growth 42C second temp,/,73,92,/,84,90
GIV-Gai inh,99,109,/,94,105,/
Sa growth 42C,/,95,88,/,100,94

73. Cc1ccn2c(=O)cc(CNCC3(N4CCCCC4)CCCCC3)nc2c1
74. CCOC(=O)c1c(NC(=O)COc2cccc(C(F)(F)F)c2)sc2c1CCC(C)C2 (stereo unspecified)
75. O=C1OC(c2ccco2)=N/C1=C\c1ccco1
76. CC(C)C(=O)CC(c1ccccc1)C1C(=O)NC(=O)NC1=O (stereo unspecified)
77. Clc1ccc(-c2nc(-c3cccc(-n4cccc4)c3)no2)cc1
78. COc1ccc(NC(=O)C2CCN(C3=NS(=O)(=O)C(c4ccc(C)c(C)c4)=C3C)CC2)cc1OC
Compound,73,74,75,76,77,78
HCMV NEC inh,-18,-68,/,-12,1,/
Sa growth 42C second temp,96,83,90,94,107,84
GIV-Gai inh,/,108,109,102,101,107
Sa growth 42C,90,96,88,100,109,101

79. Cc1cc(OC(C)C(=O)N2CCOCC2)nc2c1c(C)nn2-c1ccccc1 (stereo unspecified)
80. COC(=O)c1ccc(NC(=O)CSc2nccn2Cc2ccc(Cl)cc2)cc1
81. CCOC(=O)c1c(CS(=O)c2ccc(Cl)cc2)oc2c(F)c(F)c(F)c(F)c12 (stereo unspecified)
82. O=C(c1ccccc1)N1CCc2c([nH]c3ccccc23)C1c1ccccc1 (stereo unspecified)
83. CCCCOc1ccc(C(=O)N2CCC(c3nc4ccccc4o3)CC2)cc1
84. Cc1ccc2nc(COc3ccccc3NC(=O)c3ccc(F)cc3)cc(=O)n2c1
85. N#Cc1ccc(OCC(=O)N=Nc2[nH]c(N)c3ccccc23)cc1
86. Cc1ccc(Cn2nccc2NC(=O)c2cccnc2Nc2ccccc2F)o1
87. O=C1CC(c2ccccc2)CC(O)=C1C=NCc1cccc(C(F)(F)F)c1 (stereo unspecified)
Compound,79,80,81,82,83,84,85,86,87
HCMV NEC inh,-25,/,-18,5,-14,/,-8,-17,/
Sa growth 42C second temp,/,72,90,139,85,88,101,85,113
GIV-Gai inh,105,96,102,/,104,102,/,/,101
Sa growth 42C,/,126,103,136,103,102,104,107,101
